Shh pathway inh = blocks Sonic Hedgehog signaling | Shh-LIGHT2 Gli-luciferase reporter, 30 h | inhibition, % (concentration not given with the values) | actives 2.1% (n = 22,000) | AID 2313;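 active = replicate mean of 65% or more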;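 also: pathway switched on by Shh-conditioned medium diluted 1 in 25 in low serum; 100 nL library stock added to about 40 µL; 0% = median of neutral wells and 100% = positive control level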
YB-1 expression = YB-1 expression inhibition; U2OS, qRT-PCR YB-1 vs CDIP delta delta Cp, 16 h; active compounds read high; zero = DMSO, each unit about twofold; AID 434959; actives 0.37% (n = 30,000); delta delta Cp (YB-1 minus CDIP) (concentration not given with the values);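 active = delta delta Cp rounded down to an integer at or above 3, about 3 SD of DMSO wells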;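 also: higher means less YB-1 transcript or more CDIP transcript relative to DMSO; stock transfer was 100 nL into about 100 µL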
MITF inhib = blocks MITF activity; TRPM1 promoter luciferase, luminescence, 24 h; inhibition, % (test concentration not listed); actives 0.28% (n = 37,000);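 active = most replicates at 85% or more, or half of them and the mean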;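 also: human melanocyte line stably carrying TRPM1 promoter luciferase reporter; 0% = vehicle wells and 100% = a positive control; the first replicate is given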
PD-1 reversal = reversal of PD-1 mediated T-cell inhibition. primary human CD4 T cells, PD-L1 beads, CellTiter-Glo 96 h. 29,000 tested, under 10 active. activation, % (no concentration beside the values). AID 2316;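 active = replicate mean of 50% or more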;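 also: 0% = median vehicle wells and 100% = positive control; 100 nL library stock added to about 50 µL; numbers are from one replicate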
The depositor's hits bear a star; x = not tested or not shown. This is a subset; rates above refer to the full screens.

canonical_smiles	Shh pathway inh	YB-1 expression	MITF inhib	PD-1 reversal
C[C@H]1CN([C@@H](C)CO)C(=O)c2cc(NC(=O)Cc3ccccc3)ccc2O[C@@H]1CN(C)Cc1ccc(Cl)c(Cl)c1	37	0.031	31	-3.6
C[C@H]1CN([C@@H](C)CO)C(=O)Cc2cc(NC(=O)Nc3ccccc3)ccc2O[C@H]1CN(C)C(=O)Nc1cccc2ccccc12	-24	0.26	-12	-0.3
O=C(O)CCn1c(SCCOc2ccccc2)nc2ccccc21	-30	-0.018	-28	0.2
C[C@@H]1CN([C@@H](C)CO)C(=O)c2cccc(NC(=O)c3ccncc3)c2O[C@H]1CN(C)C	35	0.016	-7	0.7
Cc1noc(C)c1NC(=O)Nc1cccc2c1O[C@H](CN(C)Cc1ccc(C(=O)O)cc1)[C@H](C)CN([C@@H](C)CO)C2=O	11	-0.13	9	0.8
O=C(Nc1nc(-c2ccccc2)nc2c1C(=O)CCC2)c1ccccc1	29	-0.31	-25	-0.3
C[C@@H]1CN([C@@H](C)CO)C(=O)c2cc(NS(=O)(=O)c3cccs3)ccc2O[C@@H]1CN(C)CC1CCCCC1	x	-0.017	-6	-0.1
Cc1noc(C)c1S(=O)(=O)N(C)C[C@H]1OCCCC[C@@H](C)Oc2ccc(NC(=O)Nc3ccc(F)cc3)cc2C(=O)N([C@H](C)CO)C[C@@H]1C	4	-0.25	-4	-0.5
O=C(CSc1nnnn1-c1ccccc1F)Nc1ccc(Br)cc1	x	x	-15	-0.1
Cc1ccc2c(c1)C(c1ccccc1)CC(C)N2S(=O)(=O)c1cccc(Cl)c1 (configuration not stated)	-4	0.34	-18	-0.5
C=CCn1c2ccccc2c2nn(C)c(=S)nc21	-10	-0.11	8	-0.6
CCOc1cccc2cc(-c3nc4ccccc4s3)c(=O)oc12	-29	0.062	29	1.7
CC(C)NC(=O)N(C)C[C@@H]1Oc2ccc(NC(=O)Nc3ccc(C(F)(F)F)cc3)cc2C(=O)N([C@@H](C)CO)C[C@@H]1C	-29	-0.43	6	0.4
Cc1cc(C)c(C)c(Oc2coc3cc(OCC(=O)Nc4ccccc4Cl)ccc3c2=O)c1	x	x	-4	-0.9
CNC[C@H]1Oc2ccc(NS(=O)(=O)c3ccccc3)cc2C(=O)N([C@H](C)CO)C[C@H]1C	x	0.089	10	0.6
COC(=O)c1cc(NC(=O)CN(c2cc(Cl)c(Cl)cc2Cl)S(C)(=O)=O)ccc1Cl	x	x	26	-1.2
C[C@H]1CN([C@@H](C)CO)C(=O)c2cc(NC(=O)Nc3ccc(F)cc3)ccc2O[C@H]1CN(C)C(=O)Nc1ccc(C(F)(F)F)cc1	-23	-0.056	25	0.3
COc1cc2c(cc1NC(=O)COc1cccc(C)c1C)oc1ccccc12	x	x	-5	3.1
COc1ccc(NC(=O)Nc2ccc3c(c2)CC(=O)N([C@H](C)CO)C[C@@H](C)[C@@H](CN(C)C(=O)NC2CCCCC2)O3)cc1	-46	0.36	-16	2.2
C[C@@H]1CN([C@H](C)CO)C(=O)c2cccc(NC(=O)c3cnccn3)c2O[C@H]1CN(C)Cc1ccccc1	-15	-0.52	34	-1.8
CC1=C(C#N)C(C(F)(F)F)(C(F)(F)F)N=C(C2CCCCC2)N1	105*	-0.17	65	-1.9
C[C@@H]1CN([C@@H](C)CO)C(=O)c2cccc(NC(=O)Nc3cccc4ccccc34)c2O[C@H]1CN(C)C(=O)NC1CCCCC1	32	0.031	35	-1.2
COc1ccc(CCNC(=O)C(=O)Nc2ccccc2C)cc1OC	x	x	-37	-1.6
COc1ccc(CN(C)C[C@H]2Oc3ccc(NC(=O)C4CC4)cc3CC(=O)N([C@H](C)CO)C[C@H]2C)cc1	-18	0.12	-7	x
Cc1cccc(Nc2nc(N)nc(CSc3nccn3C)n2)c1	x	x	-114	0.9
CC(=O)OC[C@H]1O[C@@H](Oc2cc(OC(C)=O)c3c(=O)cc(-c4ccc(OC(C)=O)cc4)oc3c2)[C@H](OC(C)=O)[C@@H](OC(C)=O)[C@@H]1OC(C)=O	65*	-0.013	-18	x
O=C1c2cc(O)cc(O)c2C(=O)c2c1cc(O)c(C(CO)CCO)c2O (configuration not stated)	-25	-0.62	-42	-1.8
Cc1ccc2cc3c(nc2c1)N(c1ccc(C(=O)NCc2ccco2)cc1)CC3	35	-0.34	-25	-1.2
Cc1cccc(C)c1NC(=O)CSc1nc(-c2ccccc2)c(-c2ccccc2)[nH]1	x	x	30	-2.8
COc1ccc(CC(N)C(=O)N[C@H]2[C@@H](O)[C@H](n3cnc4c(N(C)C)ncnc43)O[C@@H]2CO)cc1 (some centres not stated)	97*	-0.94	92*	-25
N#CCCN(CCC#N)C(=O)c1ccccc1Oc1ccccc1	x	x	-3	0.8
C[C@H](CO)N1C[C@H](C)[C@H](CN(C)Cc2ccc(Oc3ccccc3)cc2)Oc2ccc(NC(=O)Cc3ccccc3)cc2CC1=O	x	-0.56	28	x
O=C(c1ccccc1)c1cnn(-c2ccc(Cl)cc2)n1	79*	0.41	72	0.4
C[C@@H]1CN([C@H](C)CO)C(=O)Cc2cc(NS(=O)(=O)c3cccs3)ccc2O[C@@H]1CN(C)S(=O)(=O)c1ccc(Cl)cc1	10	-0.0013	5	x
C[C@@H]1CN([C@@H](C)CO)C(=O)c2cccc(NC(=O)C3CC3)c2O[C@H]1CN(C)Cc1ccccc1	27	0.25	6	-0.2
COc1ccc(NC(=O)Nc2ccc3c(c2)C(=O)N([C@H](C)CO)C[C@@H](C)[C@H](CN(C)C(=O)Nc2ccc(F)cc2)O3)cc1	x	0.041	0	-1.3
C[C@@H]1CN([C@H](C)CO)C(=O)Cc2cc(NC(=O)CCC(F)(F)F)ccc2O[C@@H]1CN(C)C(=O)Nc1cccc2ccccc12	-20	-0.14	17	x
O=C(NCc1ccccn1)C1CC(c2cccc(Br)c2)=NO1 (configuration not stated)	x	x	11	1.9
C[C@H]1CN([C@@H](C)CO)C(=O)Cc2cc(N(C)C)ccc2O[C@H]1CN(C)C(=O)Nc1ccc(F)cc1	-14	0.19	-4	2.4
COc1ccc(S(=O)(=O)N(C)C[C@@H]2Oc3ccc(N(C)C)cc3C(=O)N([C@H](C)CO)C[C@@H]2C)cc1	-11	-0.26	-3	-0.4
C[C@@H]1CCCCO[C@@H](CN(C)S(=O)(=O)c2ccc(F)cc2)[C@@H](C)CN([C@H](C)CO)C(=O)c2cc(NS(=O)(=O)c3cccs3)ccc2O1	20	-0.34	15	x
CC(C)Nc1nc(Oc2ccc(=O)[nH]n2)nc(N(C)C)n1	x	x	7	0.6
CCOC(=O)c1ccccc1NC(=O)CSc1nc2ccccc2[nH]1	x	x	7	-1.1
CC(=O)O[C@@H]1C[C@@]23C[C@@]24CC[C@H](O[C@@H]2OC[C@@H](O)[C@H](O)[C@H]2O)C(C)(C)[C@@H]4CC[C@H]3[C@]2(C)C[C@@H]3O[C@]4(C[C@@H](C)[C@@H]3[C@@]12C)O[C@H](O)[C@@]1(C)O[C@@H]41	3	-0.15	x	x
COC(=O)c1c(-c2ccccc2)csc1NC(=O)c1cc2cccc(OC)c2oc1=O	x	x	-13	1.1
C[C@H](CO)N1C[C@H](C)[C@@H](CN(C)Cc2ccccc2)Oc2c(NS(=O)(=O)c3ccccc3)cccc2C1=O	8	1.3	-2	x
O=C(O)CCC(=O)Nc1ccc2c(c1)C(=O)NC2=O	x	x	7	1.4
COc1ccc(CN(C)C[C@H]2Oc3ccc(NS(=O)(=O)c4cccs4)cc3CC(=O)N([C@H](C)CO)C[C@H]2C)cc1	8	0.14	-12	-0.1
O=C(CSc1ccccc1C(=O)O)Nc1ccnc2ccccc12	x	x	-72	1.1
Cc1ccc(S(=O)(=O)N(C)C[C@H]2Oc3ccc(NC(=O)Nc4ccccc4)cc3C(=O)N([C@H](C)CO)C[C@@H]2C)cc1	49	-0.028	2	1.6
C[C@@H]1CCCCO[C@@H](CN(C)S(=O)(=O)c2ccc(F)cc2)[C@@H](C)CN([C@H](C)CO)C(=O)c2cc(NS(=O)(=O)c3ccccc3)ccc2O1	13	0.22	3	x
C[C@@H]1CCCCO[C@H](CN(C)Cc2ccc(C(=O)O)cc2)[C@@H](C)CN([C@H](C)CO)C(=O)c2cc(NC(=O)c3ccccc3)ccc2O1	x	-0.3	-1	0.6
C[C@@H]1CN([C@@H](C)CO)C(=O)c2cccc(NC(=O)Nc3ccc(F)cc3)c2O[C@H]1CN(C)Cc1ccc(-c2ccccc2)cc1	3	0.087	35	-5.1
COc1ccc(CCNC(=O)C2CCCCC2)cc1OC	x	-0.83	-4	-1.1
C[C@H](CO)N1C[C@H](C)[C@H](CN(C)C(=O)Nc2cccc3ccccc23)Oc2c(NC(=O)c3ccncc3)cccc2C1=O	-36	0.6	6	1.6
CN(CC(=O)Nc1cccc(F)c1)S(=O)(=O)c1ccccc1	x	x	-9	-0.8
C[C@H]1[C@H](C)CC[C@]2(C(=O)O)CC[C@]3(C)C4=CCC5C(C)(C)[C@@H](O[C@@H]6O[C@H](C(=O)O)[C@@H](O)[C@H](O)[C@H]6O)CC[C@]5(C)C4CC[C@@]3(C)[C@H]12 (some centres not stated)	-5	-0.052	3	-1.5
COc1ccccc1C(=O)Nc1ccc2c(c1)nc(CCNC(C)=O)n2C	x	x	-73	1.2
Cc1noc(C)c1NC(=O)N(C)C[C@H]1Oc2ccc(NS(C)(=O)=O)cc2C(=O)N([C@H](C)CO)C[C@H]1C	-12	-0.42	1	1.5
Cc1cc(Br)ccc1OCC(=O)Nc1ccccc1[N+](=O)[O-]	x	x	-8	-0.1

The results go on:
structure	Shh pathway inh	YB-1 expression	MITF inhib	PD-1 reversal
Cc1nnc(SCC(=O)Nc2ccc(Br)cc2)n1-c1ccccc1	x	x	-12	-3.4
COc1ccc(CN2C(=O)C(O)(CC(=O)c3cccnc3)c3ccccc32)cc1OC (configuration not stated)	x	x	2	-4.5
C[C@@H]1CN([C@@H](C)CO)C(=O)c2cccc(NS(=O)(=O)c3ccc(F)cc3)c2O[C@H]1CN(C)S(=O)(=O)c1ccc(Cl)cc1	-4	0.31	-5	1.5
Cc1noc(C)c1NC(=O)Nc1cccc2c1O[C@@H](CN(C)C(=O)Nc1ccc3c(c1)OCO3)[C@@H](C)CN([C@@H](C)CO)C2=O	20	-0.41	1	-0.7
CNC[C@H]1Oc2ccc(NC(=O)Nc3cccc4ccccc34)cc2CC(=O)N([C@@H](C)CO)C[C@H]1C	-4	0.29	5	0.3
Cc1cc(C)n2nc(SCC(=O)Nc3ccccc3[N+](=O)[O-])nc2n1	x	x	-24	0.9
CN(C(=O)c1cn(C)c(=O)cc1C(F)(F)F)c1ccc(Cl)c(Cl)c1	1	-0.27	3	0.0
CCc1cccc(C)c1NC(=O)CSc1nnc(-c2cccnc2)n1C	x	x	-3	1.7
C=C(C)C(=O)OC1CC(CO)CCC/C(CO)=C\C2OC(=O)C(=C)C21 (configuration not stated)	71*	0.2	x	x
N#Cc1ccc2nc(C(O)C(O)c3nc4ccc(C#N)cc4[nH]3)[nH]c2c1 (configuration not stated)	-17	1.1	5	2.4
CC(C)NC(=O)N(C)C[C@H]1Oc2ccc(NS(=O)(=O)c3ccc(Cl)cc3)cc2CC(=O)N([C@H](C)CO)C[C@H]1C	x	-0.033	1	-0.2
COc1ccc(NC(=O)CSc2nc3sc(C)c(C)c3c(=O)n2-c2ccccc2)c([N+](=O)[O-])c1	x	x	19	1.9
Cc1ccc(S(=O)(=O)N(C)c2ccc(C(=O)Nc3cccc(N(C)S(C)(=O)=O)c3)cc2)cc1	x	x	41	-1.6
O=C(COc1ccccc1[N+](=O)[O-])Nc1ccc2oc(-c3ccccc3Br)nc2c1	x	x	-10	-4.4
C[C@@H]1CN([C@@H](C)CO)C(=O)c2cc(NC(=O)Nc3ccc(C(F)(F)F)cc3)ccc2O[C@@H]1CN(C)CC1CCCCC1	30	-0.25	-5	-6.7

Copied from the list:
In Shh pathway inh, C[C@@H]1CN([C@@H](C)CO)C(=O)c2cc(NC(=O)Nc3ccc(C(F)(F)F)cc3)ccc2O[C@@H]1CN(C)CC1CCCCC1 has the entry 30
In PD-1 reversal, Cc1cc(C)n2nc(SCC(=O)Nc3ccccc3[N+](=O)[O-])nc2n1 has the entry 0.9
In PD-1 reversal, COc1ccc(NC(=O)CSc2nc3sc(C)c(C)c3c(=O)n2-c2ccccc2)c([N+](=O)[O-])c1 has the entry 1.9
In Shh pathway inh, C[C@@H]1CN([C@@H](C)CO)C(=O)c2cccc(NS(=O)(=O)c3ccc(F)cc3)c2O[C@H]1CN(C)S(=O)(=O)c1ccc(Cl)cc1 has the entry -4
In MITF inhib, COc1ccc(CN2C(=O)C(O)(CC(=O)c3cccnc3)c3ccccc32)cc1OC (configuration not stated) has the entry 2

Compound profiles, as listed above. Values in the order: Shh pathway inh	YB-1 expression	MITF inhib	PD-1 reversal
`Cc1ccc(S(=O)(=O)N(C)c2ccc(C(=O)Nc3cccc(N(C)S(C)(=O)=O)c3)cc2)cc1` as listed: x	x	41	-1.6
`COc1ccc(CN2C(=O)C(O)(CC(=O)c3cccnc3)c3ccccc32)cc1OC` (configuration not stated) as listed: x	x	2	-4.5
